Bioassay records deposited in PubChem BioAssay by National Center for Advancing Translational Sciences (NCATS).
gsp antagonist: antagonists of gsp mutant (McCune-Albright syndrome); gsp-mutant cells, cAMP HTRF, 30 min; control for the full effect not named in the record; Potency, µM (highest dose often 76.9 µM), for the others: at the highest dose activity change, negative = inhibition, actives largely listed as inhibitors; 340,000 tested, 0.4% active; AID 624288; active = falling curve of any shape with a large fitted effect; inconclusive = falling curve, mostly with a smaller effect; inactive = flat or rising curve; cell line not stated here;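 further: intracellular cAMP measured with PDE inhibitor Ro 20-1724 present during compound exposure; potency means the concentration at half of the fitted maximal effect; on the % scale 0 is the no-effect control and ±100 the full control effect; nearly all actives have a fitted effect of over 65% in size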
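G418-selected cells were plated in DMEM/10% FBS for 16-24 h at 37C, then treated with compounds plus the PDE inhibitor […] (300 uM solution added) for 30 min at 37C. Intracellular cAMP was measured by HTRF after 30 min lysis at room temperature.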
gsp agonist: activates gsp, the McCune-Albright syndrome mutation; gsp mutant cells, cAMP HTRF, 30 min; control for the full effect not named in the record; Potency, µM (doses to about 76.9 µM), without a hit: at the highest dose activation (cAMP increase), usual class: activators; 340,000 tested, 0.13% active; AID 624287; active = well fitted activation curve with a large enough effect; inconclusive = small, poorly fitted or top-dose-only effect, or another doubt; inactive = no such curve, though single readings can be large or run the other way; cell line not stated here;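 further: phosphodiesterase inhibitor Ro 20-1724 added with compounds to block cAMP breakdown; potency means the concentration at half of the fitted maximal effect; nearly all actives have a fitted effect of over 60% in size; about a fifth of the inactives were tested at one dose only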
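Cells in DMEM/10% FBS with G418 were pretreated with compounds in DMSO plus […] (300 uM stock) for 30 min at 37C. cAMP was measured by HTRF (cAMP-d2 plus anti-cAMP antibody-K) after 30 min at room temperature.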
Menin-MLL FL inh: menin-MLL binding inhibition, fluorescein peptide; FP activity change, % at 61.4 µM; 290,000 tested, under 10 active; Fluorescence polarization, fluorescein-MLL peptide displacement from menin; inconclusive = falling polarisation curve, or a change in total fluorescence; inactive = total fluorescence flat and polarisation flat or rising; no compound was filed as active; the % refers to the polarisation; negative = inhibition;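 further: % of control where 0% means no effect; inhibitors lower the polarisation; unlabelled MLL peptide was the positive control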
TRPML1 ag: agonists of human TRPML1 channel | TRPML1-expressing cells, Ca2+ dye fluorescence, FDSS; host cell line not named in the record; reference of the full effect not given here | Q9GZU1 | 410,000 tested, 0.12% active | activation, % (test concentration not listed); in the data active = activation above about 50%; inconclusive = about 30% to 50%; inactive = below about 30%; further: 0% is about no effect; the text of the record puts the active cut at 80%
Target sequence (Q9GZU1 whole entry, looked up): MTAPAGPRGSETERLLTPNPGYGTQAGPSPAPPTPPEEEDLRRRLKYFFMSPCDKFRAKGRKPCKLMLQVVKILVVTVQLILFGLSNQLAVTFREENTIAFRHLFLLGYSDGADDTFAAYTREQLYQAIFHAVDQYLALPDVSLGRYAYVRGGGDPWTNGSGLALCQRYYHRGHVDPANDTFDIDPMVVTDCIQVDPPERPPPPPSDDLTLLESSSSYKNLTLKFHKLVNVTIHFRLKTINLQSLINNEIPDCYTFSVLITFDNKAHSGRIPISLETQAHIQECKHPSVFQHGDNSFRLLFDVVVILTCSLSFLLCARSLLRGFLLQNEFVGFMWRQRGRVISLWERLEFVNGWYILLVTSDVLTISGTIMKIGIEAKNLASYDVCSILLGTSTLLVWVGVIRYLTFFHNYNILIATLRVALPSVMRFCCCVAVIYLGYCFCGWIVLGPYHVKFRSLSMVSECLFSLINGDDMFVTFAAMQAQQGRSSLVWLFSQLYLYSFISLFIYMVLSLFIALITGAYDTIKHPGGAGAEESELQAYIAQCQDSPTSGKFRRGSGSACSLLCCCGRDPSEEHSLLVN
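Cells: TRPML1-DL, 1X Tet inducer, ~16 h at 37 degrees C/5% CO2. Dye: ABD Ca8 no-wash + quencher, 45-90 min RT. Read: 10 s baseline, compound add, 110 s agonist phase; 54-4 EC80 (4uM final), 110 s antagonist phase.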
TRPML1 inh: blocks the human TRPML1 channel; Q9GZU1; TRPML1-inducible cells, Ca2+ dye fluorescence, FDSS; stronger effect = lower value; inhibition of EC80 agonist-evoked calcium signal; activity change, negative = inhibition, % (no concentration beside the values); 390,000 tested, 0.02% active; in the data active means activity change below about -50%; inconclusive means about -30% to -50%; inactive means above about -30%;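 further: stimulus is agonist 54-4 at its EC80 concentration; on the % scale 0 is the no-effect control and ±100 the full control effect; compound concentration not given in the record; the text of the record puts the active cut at -80%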
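Calcium fluorescence in TRPML1-DL cells induced overnight with Tet: a 110 s read after compound pin addition, then a 110 s antagonist read after challenge with 54-4 at 4 uM final (EC80).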
ClpP mod: qHTS Assay for Activators of ClpP | AID 651965, 2013 | purified B. subtilis ClpP, FRET peptide cleavage, 20 min | 340,000 tested, 1.9% active | ATP-dependent Clp protease proteolytic subunit (Bacillus subtilis (strain 168)), P80244 | Potency, µM (titrated, usually from 57.5 µM), inactives show top-dose activity change, negative = active; active = well fitted falling curve with a large enough effect; inconclusive = small, poorly fitted or top-dose-only effect; inactive = no such curve, though single readings can be large or run the other way; further: potency means the concentration at half of the fitted maximal effect; the source files actives as falling curves though it sought activators and does not explain the sign; nearly all actives have a fitted effect of over 65% in size; many hits overshoot -100%
Target sequence (P80244 whole entry, looked up): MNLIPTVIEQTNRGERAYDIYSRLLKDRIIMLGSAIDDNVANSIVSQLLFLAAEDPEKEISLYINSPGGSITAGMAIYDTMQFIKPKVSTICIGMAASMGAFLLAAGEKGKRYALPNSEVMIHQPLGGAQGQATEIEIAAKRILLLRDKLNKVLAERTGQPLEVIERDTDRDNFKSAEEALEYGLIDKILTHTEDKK
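ClpP 10 microg/mL final, pH 8 Tris/KCl buffer with BSA, glycerol, Tween-20; compound pinned in; FRET-FV substrate; RT 20 min; Ex320/Em430; ΔFRET vs ADEP 5.8 microM, DMSO, no enzyme.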
Starred values were filed as active, the others as inactive; ? = inconclusive; . = not tested or not shown; [ ] = remark or other dose. This is a random part of the collection; overall some 2.1% were active at least once.

SMILES	gsp antagonist	gsp agonist	Menin-MLL FL inh	TRPML1 ag	TRPML1 inh	ClpP mod
COc1ccc(COCC(CC(C)C)N2CCN(C(=O)c3cccc(C(F)(F)F)c3)CCC2=O)cc1 (configuration not stated)	-6%	.	0.0	-0.1	9	-3.1%
C(=C\c1nc2ccccc2[nH]1)/c1ccccc1	-20%	7%	2.1	1.5	8	?
CCc1ccccc1NS(=O)(=O)c1cccc2nsnc12	6%	35%	3.5	-1.1	30	-0.9%
CCCC(=O)Nc1cc2c3c(c1)C(C)C(=O)N3CCC2 (configuration not stated)	-17%	-9%	-7.1	2.6	49	-0.7%
CCOC(=O)c1c(NC(=O)c2ccccc2N(C)S(=O)(=O)c2ccccc2)sc2c1CCCC2	-12%	5%	6.3	0.2	64	13µM*
Cc1ccc(-c2c[n+](CC(=O)Nc3cc(=O)n(C)c(=O)n3C)c3n2CCC3)cc1	4%	-7%	1.9	-0.2	1	-0.7%
CCc1ccc(OCCNC(=O)c2cc(SC)ccc2Cl)cc1	-5%	7%	0.4	2.0	-2	-3.9%
COc1ccc(NC(=O)CN2CCN(Cc3ccccc3Cl)S2(=O)=O)cc1Cl	.	.	.	1.2	2	0.5%
CC(=O)c1cccc(NC(=O)c2ccc(N(C)S(C)(=O)=O)cc2)c1	-1%	4%	1.5	1.1	-7	-1.2%
OCCN(Cc1ccccc1)Cc1ccc(F)c(F)c1	3%	-15%	7.4	0.8	-21	0.7%
CCCCC1=CC2=C(c3ccco3)C(=O)C(C)(OC(=O)c3ccc(OC)cc3)C(=O)C2=CN1C(CO)CO (configuration not stated)	3%	.	-24[11.7 µM]	-0.4	20	-1.9%
Cc1ccc(SCCC(=O)Nc2nccs2)cc1	10%	7%	0.5	-0.4	1	.
COC(=O)c1ccccc1NC(=O)c1ccccc1SC	2%	27%	0.2	3.3	44	-1.1%
COc1ccc(OC(=O)c2cccc(S(=O)(=O)N3CC(C)OC(C)C3)c2)cc1 (configuration not stated)	-19%	1%	.	0.5	0	-2.4%
COc1ccccc1NC(=O)c1c(C)nc2ccccc2c1C(=O)O	7%	3%[15.4 µM]	0.9	0.8	4	.
COc1cc(C(=O)Nc2nnc(C(F)(F)F)s2)c([N+](=O)[O-])cc1OC	-10%	-29%	2.5	0.7	-9	-0.7%
O=C1c2ccccc2-c2cccc(C(=O)N3CCN(C(=O)c4ccccc4)CC3)c21	?	-9%	-5.9	-0.3	6	-0.3%
O=C(CCc1ccccc1)NNC(=O)C1CCCCC1	10%	11%	3.0	1.1	24	-1.6%
CN(C)c1ccc(CNC(=O)C2(C)Cc3c(-c4ccc(N(C)C)cc4)ccnc3O2)cc1 (configuration not stated)	.	.	.	0.7	56	5.1%
C[C@@H]1CN([C@@H](C)CO)C(=O)c2cc(C#Cc3ccccc3)cnc2O[C@@H]1CN(C)Cc1ccccn1	.	-33%[inhibitor]	.	-0.3	?	-16%
Cc1cc2c(n1-c1ccc(Cl)cc1)CC(C)(C)CC2=O	-12%	-15%	-1.3	1.0	5	-1.9%
N#C/C(=N\Nc1ccc(Cl)c(Cl)c1)C(=O)C1CC1	25µM*	-24%	-2.2	-0.3	-28	.
N#CCNC(=O)C1CC(=O)N(CCc2ccc(F)cc2)C1 (configuration not stated)	-6%	25%[15.4 µM]	1.6	0.6	-6	-0.7%
CCOC(=O)c1ccc(CNCc2ccc(C)cc2)cc1	9%	-4%	1.4	1.9	4	-4.5%
O=C(N/N=C\c1ccc(Cl)s1)c1ccc(Cn2cccn2)o1	-14%	5%[15.4 µM]	2.5	-0.1	-4	-8.3%
Next part.
SMILES	gsp antagonist	gsp agonist	Menin-MLL FL inh	TRPML1 ag	TRPML1 inh	ClpP mod
CCc1nnc(NC(=O)CN2CCOCC2)s1	5%	-2%	-0.1	-0.6	-6	-1.6%
COCCCN1C(=O)C(=O)/C(=C(/O)c2ccc(S(=O)(=O)N3CCOCC3)cc2)C1c1ccc(C(C)C)cc1 (configuration not stated)	13%	10%	-3.0	-0.3	2	.
CCN1C(=O)[C@H]2[C@@H](c3ccc(C)cc3)N3C(=O)N(c4ccccc4)C(=O)[C@@]3(CC)[C@H]2C1=O	8%	.	-0.8	-0.9	22	-0.3%
COc1cc(C(C)=O)ccc1COc1ccc(C(=O)OCC(=O)NC(C)(C)C)cc1OC	-21%	-35%[inhibitor]	3.9	0.0	-4	-28%
C(=N/Nc1nccs1)/c1cccnc1	4%	21%	0.2	-0.2	-6	.
Cc1cc(S(=O)(=O)N2CCOCC2)ccc1OCC(=O)Nc1ccc(Br)cc1F	7%	0%[15.4 µM]	0.3	0.6	2	.
Cc1ccc(N2CC(c3nnc(NC(=O)c4ccco4)s3)CC2=O)cc1Cl (configuration not stated)	.	.	.	0.2	-1	-23%
COc1ccc(Cl)cc1N(CC(=O)Nc1ccccc1C(=O)N1CCCC1)S(C)(=O)=O	2%	13%[15.4 µM]	6.6	-1.1	10	-1.2%
COc1ccc2c(/C=N/Nc3ccc(C(=O)O)cc3)c[nH]c2c1	-3%	16%[15.4 µM]	?	0.0	19	.
COc1ccc(Cc2nc3ccccc3n2C)cc1	3%	-7%[15.4 µM]	-1.9	0.7	15	.
Cc1ccc(C(=O)NC2CCCc3ccccc32)o1 (configuration not stated)	-1%	-25%	7.1	-0.6	6	-0.5%
CCOC(=O)c1cnc(C(F)(F)F)nc1Oc1ccccc1	11%	-17%[15.4 µM]	0.3	-0.7	3	0.1%
CN(CC(=O)Nc1ccccc1Cl)C(=O)CSc1nnc(N)s1	7%	1%[15.4 µM]	.	-0.4	12	.
CCCCn1c(N)c(N(CCOC)C(=O)CN(C)S(=O)(=O)c2ccc(C)cc2)c(=O)[nH]c1=O	11%	?	.	0.4	-17	-6.6%
CCN(C(=O)c1cn(CC(C)C)c(=O)c2cc(OC)c(OC)cc12)c1cc(OC)ccc1OC	.	.	.	-0.5	6	-0.1%
Cc1cccc(C(=O)/C=C2/c3ccccc3CC(C)(C)N2C)c1	-12%	13%	0.1	-0.5	-3	0.1%
Cc1ccc2[nH]c(=O)c(COC(=O)C3CCCCC3)cc2c1	9%	-27%	1.4	0.4	-7	.
CC1CCC2(CC1)NC(=O)N(CC(=O)Nc1ccc(N3CCCCC3)cc1)C2=O (configuration not stated)	.	0%	.	-0.2	-14	1.3%
CS(=O)(=O)c1ncc(Cl)c(C(=O)N2CCN(c3cccc(Cl)c3)CC2)n1	.	.	.	13	18	1.5%
C=CCNCc1ccccc1[N+](=O)[O-]	12%	.	.	-0.8	0	1.6%
CCN(CC)C(=O)c1ccc(S(=O)(=O)Cc2ccc(C)cc2)c([N+](=O)[O-])c1	-27%	24%	2.0	.	.	0.4%
Cc1nnc2n1NC(c1ccc(Cl)cc1)C(C(=O)N1CCC(C)CC1)S2 (configuration not stated)	-3%	-20%	-0.7	-0.5	8	-0.6%
COc1ccc(N(C(=O)c2ccccc2OC)C2C=CS(=O)(=O)C2)c(OC)c1 (configuration not stated)	-5%	2%	4.5	-0.8	-8	2.1%
CCc1ccccc1OCC(=O)Nc1ccc(F)c(S(=O)(=O)N2CCOCC2)c1	-16%	-21%	.	1.0	14	-2.0%
COc1ccccc1CNC(=O)Cc1ccc(Br)cc1	2%	-39%[inhibitor]	4.5	3.0	21	-2.0%

Given with values under each structure: part of the list above
Each structure is followed by: gsp antagonist | gsp agonist | Menin-MLL FL inh | TRPML1 ag | TRPML1 inh | ClpP mod
> Cc1ccc(N2CC(c3nnc(NC(=O)c4ccco4)s3)CC2=O)cc1Cl (configuration not stated)
→ . | . | . | 0.2 | -1 | -23%
> COc1ccc(Cl)cc1N(CC(=O)Nc1ccccc1C(=O)N1CCCC1)S(C)(=O)=O
→ 2% | 13%[15.4 µM] | 6.6 | -1.1 | 10 | -1.2%
> COc1ccc2c(/C=N/Nc3ccc(C(=O)O)cc3)c[nH]c2c1
→ -3% | 16%[15.4 µM] | ? | 0.0 | 19 | .
> COc1ccc(Cc2nc3ccccc3n2C)cc1
→ 3% | -7%[15.4 µM] | -1.9 | 0.7 | 15 | .

More compounds:
SMILES	gsp antagonist	gsp agonist	Menin-MLL FL inh	TRPML1 ag	TRPML1 inh	ClpP mod
O=C(NCc1ccccc1F)c1cccc(NC(=O)N2CCSc3ncccc32)c1	.	.	.	0.5	0	?
CCOC(=O)C1(Cc2cccc(OC)c2)CCN(CC(O)CO)CC1 (configuration not stated)	17%	-16%	-2.3	0.5	27	0.6%
O=[N+]([O-])c1ccc(/C=N/n2c(-c3ccccc3)n[nH]c2=S)cc1	?	9%[15.4 µM]	-0.4	1.0	-4	-13%
COc1ccccc1-c1nc(SCC(=O)N(C)c2ccccc2)c2c(=O)n(C)c(=O)n(C)c2n1	-13%	11%[15.4 µM]	2.6	-0.4	-21	1.4%
O=C(CN1CCN(C(=O)c2cccc(S(=O)(=O)N3CCCC3)c2)CC1)Nc1ccccc1Cl	-5%	21%	.	-1.2	3	0.2%
C#CCCOC(=O)N1C2=NC(C(=O)OC)=C(C(=O)OC)[C@@H]3N(C)c4ccc(OC)cc4[C@]23C[C@H]1C(=O)OC	-6%	?	-2.6[11.7 µM]	0.0	1	0.0%
Cc1cccc(N(C)S(=O)(=O)c2nnc(NC(=O)c3cccs3)s2)c1	.	.	.	4.1	-8	-11%
CCn1c(-c2ccncc2)n[nH]c1=S	6%	-7%[15.4 µM]	-1.2	1.2	-8	.
CCOc1ccc(CCNC(=O)CN(C)S(=O)(=O)c2ccc3c(c2)CCC(=O)N3)cc1OCC	-9%	-32%[inhibitor]	2.6	-0.8	2	0.7%
C=CCn1c(=NC(=O)c2ccco2)sc2cc(C(=O)OC)ccc21	-5%	26%	3.6	1.7	11	22µM*
Cc1ccc(-c2noc(CN(C)C(=O)c3ccc(Br)o3)n2)cc1	-3%	-16%	.	0.1	12	1.3%
NCCCCCNC(=O)/C=N\O	-5%	-1%	2.3	-0.5	-10	-1.5%
CCNc1nc(NCC)nc(SCCOc2ccc(C)cc2)n1	-13%	-19%	6.1	1.5	46	-1.1%
Oc1ccc(Nc2nc(N3CCCC3)c3ccccc3n2)cc1	10%	0%	?	-0.8	-11	-2.4%
CC(C)(C)c1csc(NC(=O)CSC2=NCCS2)n1	-7%	-25%	1.6	1.3	4	.
CC(C)OCCCNC(=O)c1ccc(CSc2nc3cccnc3n2Cc2ccccc2)cc1	.	.	.	1.5	8	4.2%
COCCN(CC(=O)Nc1cccc(C)c1C)C(=O)c1ccc2c(c1)OCO2	13%	3%[15.4 µM]	.	-0.3	5	1.5%
COC(=O)c1ccc2nc(C)cc(Nc3ccc(O)cc3)c2c1	.	.	.	0.0	-15	-1.4%
CN(C)c1cc(N/N=C\c2ccccc2)nc(N(C)C)n1	-9%	19%	-0.1	0.9	34	-0.5%
